# Compound activity deposited in PubChem BioAssay by several laboratories.
# RanGTP-Impb inh: inhibitors of RanGTP-importin-beta interaction, primary screen, biochemical, FRET, CFP-Ran, YFP-importin-beta, homogeneous; AID 2216; 300,000 compounds, 1.1% hits; cell-free CFP-Ran/YFP-importin-beta FRET ratio; inhibition, % (no concentration beside the values);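 active means most replicates above 15%; inconclusive means exactly half above 15%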;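 further: 0% = DMSO wells and 100% = Ran loaded with GDP instead of GTP; wells of about 40 µL received 100 nL stock; the first replicate is given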
# AF4-AF9 inh: inhibitors of human MLL-AF4/AF9 interaction; inhibition, % at 10 µM; AlphaScreen, biotin-AF4 peptide binding to FLAG-AF9; P42568; 350,000 compounds, 0.47% hits;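 active means every replicate reaching a set inhibition limit, whatever the replicate mean, cut at about 25% in these data; inconclusive means mean inhibition reaches that limit but some replicates miss it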;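 further: 0% = plate neutral control median and 100% = total signal loss; the record names both 10 and 1 µM as test concentration; the first replicate is given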
# Target sequence (P42568 whole entry, looked up): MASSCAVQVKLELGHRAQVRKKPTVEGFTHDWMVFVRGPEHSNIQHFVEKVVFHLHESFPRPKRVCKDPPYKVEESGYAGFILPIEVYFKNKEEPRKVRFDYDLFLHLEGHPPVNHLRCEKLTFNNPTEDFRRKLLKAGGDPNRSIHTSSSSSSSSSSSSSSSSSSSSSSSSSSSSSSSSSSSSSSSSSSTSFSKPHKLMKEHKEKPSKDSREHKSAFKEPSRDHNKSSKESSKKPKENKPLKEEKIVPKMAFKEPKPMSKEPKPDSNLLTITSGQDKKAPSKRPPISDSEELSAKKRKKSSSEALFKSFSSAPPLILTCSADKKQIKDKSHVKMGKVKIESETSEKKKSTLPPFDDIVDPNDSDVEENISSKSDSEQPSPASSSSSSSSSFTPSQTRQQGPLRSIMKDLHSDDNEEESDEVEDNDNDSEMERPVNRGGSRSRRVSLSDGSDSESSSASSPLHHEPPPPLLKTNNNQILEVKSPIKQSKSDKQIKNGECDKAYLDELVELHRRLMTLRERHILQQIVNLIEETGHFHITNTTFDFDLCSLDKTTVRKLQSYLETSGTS
# Calb FLC: affects C. albicans growth with fluconazole; C. albicans CaCi-2 (fluconazole-resistant clinical isolate) + fluconazole, Alamar Blue growth, 48 h; 300,000 compounds, 0.57% hits; growth inhibition, % (no concentration beside the values);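 active means most replicates above 75%; inconclusive means exactly half above 75%; inactive means most below 75%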;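 further: all wells also contain fluconazole at 8 µg/ml as a sub-toxic cotreatment; 0% = median of DMSO wells and 100% = median of geldanamycin control wells; wells of about 8 µL received 7.5 nL stock; the first replicate is given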
# Bfl-1 A1 inh: inhibitors of the anti-apoptotic protein A1, read as caspase activation | caspase activation, % (test concentration not listed) | MEF A1-2A-BIM cells, Caspase-Glo 3/7 luminescence, 3 h; percent of clofoctol response, vehicle zero | 330,000 compounds, 0.066% hits | AID 2462;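 active means over half of replicate activation scores above 10%, or exactly half above 10 with the replicate mean above 10; inconclusive means replicate mean below 10 yet half the replicates above 10; inactive means over half of replicates below 10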;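 further: wells of about 30 µL received 50 nL stock; many hits fall short of the cut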
# LANA-H2A inh: blocks KSHV LANA binding to histone H2A/H2B; AID 2629; inhibition, % (concentration not given with the values); Q9QR71; cell-free LANA-H2A/H2B peptide, fluorescence polarization; 320,000 compounds, 0.6% hits; in the data active means inhibition mostly above about 10%, no sharp cut-off; inactive means mostly below about 6.7%;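 further: stock transfer was 7.5 nL into about 10 µL; 0% = median of vehicle wells and 100% = median of positive control wells; one replicate is shown; the record names a cut of 25% in any replicate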
# T cruzi repl: blocks replication of Trypanosoma cruzi; T. cruzi beta-gal in NIH3T3, luminescence, 90 h; inhibition, % (no concentration beside the values); 300,000 compounds, 1.4% hits;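 active means mean inhibition across valid replicates above about 55%, limit read from the data; inconclusive means mean below that limit but half or more replicates reach it; inactive means mean below it, under half of replicates reach it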;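 further: signal also drops with host cell toxicity which is not excluded here; 0% = plate median of DMSO wells and 100% = zero luminescence signal; higher percent means less beta-gal luminescence so fewer parasites; stock transfer was 50 nL into about 50 µL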
# Beta apoptosis: beta cell apoptosis inhibition. INS-1E cytokine-induced death, ATP luminescence, 48 h; percent of positive-control rescue, neutral wells zero. protection from apoptosis, % (test concentration not listed). 300,000 compounds, 0.8% hits. AID 435005;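 active means all replicates at 75% or more, or half of them and the mean; inconclusive means half reach 75% but not the mean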;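 further: 0% = cytokine-treated negative control wells and 100% = positive control rescue; higher means more ATP so stronger rescue from cytokine killing; wells of about 40 µL received 100 nL stock; the first replicate is given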
# Vif A3G: inhibitors of Vif binding to APOBEC3G peptide, primary screen, biochemical, TR-FRET, GST-Vif 1-94, biotin-A3G peptide, dose response retest (AID 1117319); inhibition, %; hits with a dose series show IC50 in µM; 260,000 compounds, 0.57% hits; TR-FRET GST-Vif / biotin-A3G peptide binding; higher % means a stronger effect; test concentration not given here; strong numbers were not always called active;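 active means above the screen mean plus three standard deviations and confirmed in dose response; inconclusive means results disagree or hit not tested in dose response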;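 further: Vif residues 1-94 fused to GST binding biotinylated APOBEC3G peptide 110-148; 0% = full assay without inhibitor and 100% = GST in place of GST-Vif; retest series ran down from 100 µM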
# An asterisk follows results filed as active; ? = inconclusive; nt = no result given.
SMILES,RanGTP-Impb inh,AF4-AF9 inh,Calb FLC,Bfl-1 A1 inh,LANA-H2A inh,T cruzi repl,Beta apoptosis,Vif A3G
Cc1ccc(Cl)cc1N(CC(=O)NC1CCCC1)C(=O)c1csnn1,-0.4,-1.1,4,0.0,1.8,8,9,nt
COc1ccc(-n2nc(C(=O)NCC(=O)Nc3cc(Cl)c(OC)cc3OC)c3ccccc3c2=O)cc1,3.1,-0.3,-15,-0.4,4.4,13,0,nt
CCOC(=O)c1sc(-c2ccc(OC)cc2)cc1N,1.0,nt,-56,-3.7,-3.4,16,-7,10%
COc1ccc(CNC(=O)c2ccc(CN3CCOCC3)cc2)cc1,-2.6,nt,-3,-0.2,2.6,5,-1,-6%
CCCCc1c(C)[nH]c(=S)[nH]c1=O,5.5,-1.7,2,0.1,1.7,-26,-4,18%
CCCn1c(SCC(=O)NC(C)C)nc2sc3c(c2c1=O)CCC3,-0.4,-1.6,11,-0.5,-5.3,4,-4,-1%
CCC1CCC(N2CCN(c3ccc(F)cc3)CC2)CC1 (stereo not drawn),-3.5,-0.1,-7,1.3,0.0,-6,-10,nt
Cc1ccccc1C(=O)N=c1ccn(-c2nc3ccccc3nc2NS(=O)(=O)c2ccccc2)cc1,-3.2,4.1,-15,-0.3,0.6,-15,-3,nt
CN(C)CCN1C(=O)C(=O)/C(=C(/O)c2ccccc2)C1c1ccccc1F (stereo not drawn),0.1,nt,-4,0.2,-1.2,-3,-12,-5%
CCOP(=O)(c1ccccc1)C(O)c1ccc([N+](=O)[O-])cc1 (stereo not drawn),-0.3,1.3,12,0.3,-4.2,-5,-5,12%
COc1ccc(CCNC(=O)CCC(=O)NC2CCCCC2)cc1OC,-2.9,-23,-50,-0.4,0.2,-5,-1,nt
CCNc1[nH]c(=O)n(C)c(=O)c1N=O,8.3,nt,5,2.2,1.8,-1,1,0%
Cc1ccc(-c2cc(=O)c3ccc(Cl)cc3[nH]2)cc1,1.4,-3.6,-1,0.8,2.4,-29,7,-7%
Cc1ccc([N+](=O)[O-])cc1S(=O)(=O)NCCc1cn2ccccc2n1,0.2,-5.6,-2,-1.1,2.0,3,2,-5%
Cc1ccc(Cl)cc1NC(=O)c1ccccc1OCC(=O)Nc1ccc(Cl)cc1,2.6,-1.5,5,0.1,-4.6,36,65,12%
COc1ccc(CCNC(=O)C(=O)NCC2OCCCN2S(=O)(=O)c2cc(C)ccc2C)cc1 (stereo not drawn),-2.0,-1.9,-5,-0.3,6.8,7,1,3%
CC(=O)Nc1ccc(Nc2ccc3c4c(cc(=O)n3C)-c3ccccc3C(=O)c24)cc1,-0.8,4.0,-1,-0.6,-4.0,56*,18,32%
CCN(CC)C(=O)Cn1c(=O)n(C)c2ccccc21,?,nt,4,-0.1,0.3,-1,-13,2%
Cc1c(C)c2c(c(C)c1O)CCC(C)(C(=O)O)O2 (stereo not drawn),nt,-1.6,nt,0.3,4.6,nt,-1,nt
O=c1c2ccccc2nc(SCc2nnc(-c3ccccc3Br)o2)n1-c1ccccc1,2.8,-7.1,0,0.1,-2.8,33,-1,-4%
CCOc1ccc(CCNC(=O)CSc2nnnn2C)cc1OCC,4.3,0.0,28,0.6,-3.5,2,-13,5%
CCCCNC(=O)c1ccc(CS(=O)(=O)Cc2ccccc2F)o1,0.9,-1.2,7,0.9,-5.4,-2,-6,-4%
CCOc1c(Cl)cc(CNC(C)(C)CC(C)(C)C)cc1OC,13,nt,9,nt,nt,37,nt,-9%
CC1CCCC(NC(=O)COC(=O)c2cc(=O)[nH]c3ccccc23)C1C (stereo not drawn),nt,-7.8,nt,1.1,-1.2,nt,0,nt
CCSc1nnc(NC(=O)[C@@H](NC(=O)c2ccccc2F)C(C)C)s1,-2.9,-0.7,-5,0.3,-2.2,-3,-2,-9%
O=C(O)c1ccccc1C(=O)OCCc1cc2ccccc2c(=O)o1,nt,-2.2,nt,0.3,0.1,nt,-1,nt
CCOc1ccc(-c2cc(CCCC(=O)NCCc3ccccc3)no2)cc1,-0.3,nt,-16,0.6,2.0,12,-2,8%
Cc1ccc(OCc2cc(C(=O)NC3CCOC3)no2)cc1C (stereo not drawn),0.9,1.5,1,-0.9,-1.8,-6,-1,1%
CCN(CC#CCC1(O)c2ccccc2-c2ccccc21)CCO,3.2,nt,-7,1.4,-2.5,-14,nt,-4%
CCCC(CCC)C(=O)Nc1ccc2c(c1)N(C(=O)CCN1CCN(C)CC1)c1ccccc1CC2,-3.5,11,-9,-0.5,-3.4,8,3,nt
O=C(CN(C1CCCCC1)S(=O)(=O)c1ccccc1)NCc1cccnc1,3.0,nt,2,1.1,-4.0,18,0,10%
Cc1cc(C)c(S(=O)(=O)N2CCCC(C(=O)NC3CCCC3)C2)c(C)c1 (stereo not drawn),-2.0,-7.2,-4,0.6,9.9,-2,0,nt
COCCN1CC(C(=O)NCc2ncccc2C)CCC1=O (stereo not drawn),-1.5,-2.0,3,1.1,-3.8,-30,1,1%
O=C(Cc1ccccc1)N[C@@H](Cc1ccccc1)c1nc2ccccc2[nH]1,-2.6,nt,11,0.5,4.7,6,4,0%
Cc1ccc(CNC(=O)C2CCC(=O)N(CC3CCCCC3)C2)o1 (stereo not drawn),0.6,0.7,-6,0.8,1.9,-12,-3,nt
CCOC(=O)C1CCCN(Cc2ccccc2C)C1 (stereo not drawn),-4.1,nt,-6,0.0,3.4,38,2,4%
COCCCNC(=O)C1CC(=O)N(Cc2ccc(OC)cc2)C1 (stereo not drawn),4.2,nt,8,-0.7,4.2,-28,-7,-2%
CCOc1cc(C(=O)NC2=NCCS2)cc(OCC)c1OCC,4.8,-1.5,6,1.6,-0.7,-7,3,-3%
Cc1ccc(C(=O)CSc2nnc(-c3ccncc3)n2C)cc1,1.5,2.6,3,-0.9,-0.2,-4,1,9%
Cc1cnc(C(=O)OCC(=O)NC2CCCCC2)cn1,-1.4,nt,-1,-0.3,-1.6,-4,-3,1%
CCCCOCP(=O)(CC)COCCCC,-3.6,nt,-6,1.4,0.6,6,0,7%
CC(C)(C)NC(=O)c1ccc(COc2ccc(Cl)cc2Cl)o1,2.0,-7.6,4,-0.3,7.9,15,nt,3%
O=C(c1ccc(F)c(S(=O)(=O)N2CCOCC2)c1)N1CCN(c2ncccn2)CC1,nt,1.1,nt,1.1,4.4,nt,-2,?
C=CCN(c1ccccc1)S(=O)(=O)c1cccc(C(=O)NCC2CCCO2)c1 (stereo not drawn),2.4,20,2,-0.1,2.3,0,-6,nt
CC(=O)c1cccc(NC(=O)c2ccccc2N(C)S(=O)(=O)c2ccc(C)cc2)c1,-1.2,0.4,8,0.3,2.9,15,-6,4%
O=C(c1cc(S(=O)(=O)N2CCOCC2)ccc1F)N(CCc1ccccc1)Cc1ccccc1,5.7,-4.6,9,0.1,1.1,8,7,-3%
Cc1ccccc1CC(=O)Nc1cccnc1,?,2.3,0,0.7,6.4,-5,3,-1%
CC(NC(=O)CCNC(=O)c1ccco1)c1ccccc1 (stereo not drawn),0.5,-0.6,-2,1.3,-0.3,-3,-4,9%
CCOC(=O)C1CCN(c2c(NCc3ccc(C(=O)N(C)Cc4ccccc4)cc3)c(=O)c2=O)CC1,0.4,1.1,-8,0.4,-4.3,-9,-7,-5%
O=Cc1ccc(OC(=O)c2cc(Cl)nc3ccccc23)cc1,2.3,-2.0,0,0.4,2.6,-6,-5,0%
Cn1c(C(=O)N2CCCc3ccccc32)cc2sccc21,-2.2,nt,2,0.4,0.6,7,5,-2%
CC(=O)NC(C)C(=O)OCC(=O)c1ccc(Cl)s1 (stereo not drawn),-1.6,nt,2,1.1,-1.8,-13,nt,-5%
CCCCn1c(N)c(N(CC(C)C)C(=O)C2CC(=O)N(Cc3ccccc3)C2)c(=O)[nH]c1=O (stereo not drawn),2.8,-0.9,3,0.4,3.1,-3,-2,5%
COc1cc(OC)cc(C(=O)Nc2ccc3nc4n(c(=O)c3c2)CCCCC4)c1,?,0.6,42,-6.0,2.5,11,3,nt
COc1ccccc1N1CCN(c2cnccn2)CC1,1.2,0.6,27,-1.9,0.0,-8,-6,nt
Cc1ccc(NC(=S)N(CCN(C)C)C(C)c2ccco2)cc1Cl (stereo not drawn),-4.5,-8.3,-9,-0.3,1.4,4,-10,4%
CCOC(=O)C1CCN(C(=O)CSc2nc(N)cc(=O)[nH]2)CC1,1.4,-2.1,-1,-0.6,4.7,-7,-8,nt
O=C(O)CCC(=O)N1CCN(c2nc(-c3ccccc3)c3cc(Br)ccc3n2)CC1,28*,-8.8,20,-0.9,0.6,16,6,nt
CN(c1ccc2nc3ccccc3c(=O)n2n1)C1CCCCC1,?,2.1,8,0.6,3.9,8,38,65%
COC(=O)c1ccc(CSc2nnc(-c3ccccc3)n2C)o1,-1.5,18,12,-0.8,-1.0,-1,-3,2%

# 3 successive compounds already listed:
SMILES,RanGTP-Impb inh,AF4-AF9 inh,Calb FLC,Bfl-1 A1 inh,LANA-H2A inh,T cruzi repl,Beta apoptosis,Vif A3G
Cc1ccccc1CC(=O)Nc1cccnc1,?,2.3,0,0.7,6.4,-5,3,-1%
CC(NC(=O)CCNC(=O)c1ccco1)c1ccccc1 (stereo not drawn),0.5,-0.6,-2,1.3,-0.3,-3,-4,9%
CCOC(=O)C1CCN(c2c(NCc3ccc(C(=O)N(C)Cc4ccccc4)cc3)c(=O)c2=O)CC1,0.4,1.1,-8,0.4,-4.3,-9,-7,-5%

# Retrieved by compound from the entries so far:
SMILES,RanGTP-Impb inh,AF4-AF9 inh,Calb FLC,Bfl-1 A1 inh,LANA-H2A inh,T cruzi repl,Beta apoptosis,Vif A3G
COc1ccc(CNC(=O)c2ccc(CN3CCOCC3)cc2)cc1,-2.6,nt,-3,-0.2,2.6,5,-1,-6%
Cc1cnc(C(=O)OCC(=O)NC2CCCCC2)cn1,-1.4,nt,-1,-0.3,-1.6,-4,-3,1%
CC(C)(C)NC(=O)c1ccc(COc2ccc(Cl)cc2Cl)o1,2.0,-7.6,4,-0.3,7.9,15,nt,3%

# More results
SMILES,RanGTP-Impb inh,AF4-AF9 inh,Calb FLC,Bfl-1 A1 inh,LANA-H2A inh,T cruzi repl,Beta apoptosis,Vif A3G
C=CCc1ccc(OCCOCCOc2ccccc2[N+](=O)[O-])c(OC)c1,-3.2,nt,-5,-0.3,-1.0,20,-2,12%
CCOC(=O)N1CCC(NS(=O)(=O)c2ccc3c(c2)CCN3C(C)=O)CC1,-0.3,nt,0,0.2,-6.1,0,-3,-4%
CCN(C(=O)C1CCCCC1)c1nnc(-c2cccnc2)s1,-2.0,nt,9,-0.4,-3.3,6,3,-12%
CCC(CO)NCC#Cc1ccccc1 (stereo not drawn),2.9,-0.1,0,0.3,2.5,-8,-8,-1%
COc1cccc(-c2nc(CS(=O)(=O)CC(=O)N3CCCCC3)c(C)o2)c1,1.3,-1.3,9,-0.7,-3.7,-5,1,nt
CCOC(=O)c1sc2cc([N+](=O)[O-])cc(SCC(C)C)c2c1N,-16,nt,-8,-0.2,-0.7,17,9,2%
